BasE inh = BasE siderophore enzyme inhibitors, primary screen, biochemical, Acinetobacter baumannii ATCC 17978, fluorescence polarization; hit rate 0.1% among 84,000; inhibition, % (concentration not given with the values); AID 485350, 2010; purified BasE, fluorescence polarization binding displacement;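 active = both replicates above 25% with normal brightness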;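 note: 0% = negative plate control signal and 100% = positive plate control signal; stock transfer was 100 nL into about 30 µL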
KSHV LANA nucl = inhibitors of KSHV LANA-nucleosome binding, primary screen, biochemical, fluorescence polarization, FITC-LANA1-23, chicken nucleosomes. z-score (concentration not given with the values). hit rate 0.3% among 51,000. FITC-LANA1-23 / chicken nucleosome fluorescence polarization; hits give low values. AID 720717, 2013;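 active = both repeat wells score below -2 in polarization z-score versus plate sample wells, excluding overly bright wells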;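 note: 100 nL library stock added to about 30 µL; numbers are from one replicate; some results filed as inactive read as strong as hits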
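test system = FITC-LANA peptide and chicken nucleosomes | amount = 240 nM purified chicken nucleosomes (480 nM peptide binding sites), final | reagent = 50 nM FITC-LANA1-23 probe | medium = TEN-BT buffer, pH 7.5 | doses = single compound addition by pin transfer, 100 nL per well | timing = 10–45 min, room temperature | detection = fluorescence polarization | repeats = duplicate plates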
Active calls of the source: *; x = no result given.

Results follow in this order: KSHV LANA nucl	BasE inh
> CCOC(=O)c1c(C)[nH]c(C(=O)C(C)Sc2nnnn2-c2cc(C)ccc2OC)c1C (stereo not given)
  x	3.0
> CC1Cc2c([nH]c3ccccc23)C(=O)N1 (stereo not given)
  0.508	-2.7
> COc1ccc(OCCSc2nnc3sc4ccccc4n23)cc1
  x	-1.4
> COc1cc(C2/C(=C(\O)c3ccccc3)C(=O)C(=O)N2CCC(=O)O)ccc1O (stereo not given)
  -0.0655	0.2
> Cc1c(OC(=O)c2ccco2)ccc2c1CCCC2
  -1.2	-2.1
> CC(C)c1cc(NC(=O)COC(=O)c2ccccc2-n2cnnn2)on1
  x	-1.1
> O=C(NC(=S)N1CCCc2ccccc21)c1ccco1
  x	4.5
> COc1ccc(NC(=O)C2C3CCCCC32)cc1 (stereo not given)
  0.263	3.0
> CN(Cc1ccc(OC(F)F)cc1)C(=O)c1ccc(S(C)(=O)=O)cc1
  x	3.0
> Cc1cc(C)c(C)c(S)c1C
  x	0.0
> COC(=O)C1C(c2ccc(OC)cc2)C(C(=O)OC)S(=O)(=O)CS1(=O)=O (stereo not given)
  x	2.0
> N#CC1=C(N)Oc2c(c(-c3ccccc3)nn2-c2ccccc2)C1c1ccc(Cl)cc1 (stereo not given)
  x	1.6
> Cc1cc(C)n2nc(COc3ccccc3)nc2n1
  -0.809	0.3
> CCN(CC)C(C(=O)NC1CCCCC1)c1ccc(OC)cc1 (stereo not given)
  0.539	0.6
> CCOC(=O)c1ccc(N=Cc2ccc3c(c2)OCO3)cc1
  x	1.4
> CC(C)n1c(C(=O)OC(C(=O)NCc2ccco2)c2cccnc2)cc2sccc21 (stereo not given)
  0.299	-78.4
> COc1ccc(C2c3c(oc4ccccc4c3=O)C(=O)N2Cc2ccncc2)cc1 (stereo not given)
  0.0925	2.0
> CN(CC(=O)N1CCN(c2ccccc2)CC1)S(=O)(=O)c1cc2c(cc1Cl)NC(=O)CO2
  0.0155	0.2
> COc1ccccc1CNC(=O)Cn1c(=O)cnc2ccccc21
  x	0.3
> O=C(CSc1n[nH]c(=O)n1Cc1ccccc1)Nc1ccc2c(c1)CCC2
  x	1.6
> COc1cc(OC)cc(C(=O)Nc2ccccc2N2CCN(C)CC2)c1
  -0.22	2.6
> CSCCN1C(=O)NC2(CCC(C)CC2)C1=O (stereo not given)
  x	4.9
> CC(=O)N(/C=C1\Sc2ccccc2C1=O)N1CCCCC1
  x	-0.2
> Cc1ccccc1NC(=O)C(N)=S
  x	0.9
> N#C/C(=C(/O)CSc1n[nH]c(=O)[nH]c1=O)c1nc2ccccc2[nH]1
  x	3.0
> Cc1nc2c(cnn2C(C)C)c(C)c1CCC(=O)OC(C)C(=O)Nc1ccc(C(N)=O)cc1 (stereo not given)
  x	-3.6
> Cn1c(SCC(=O)NN)nc2ccccc21
  x	1.0
> CC1CCCCN1C(=O)c1cccc(C(=O)N2CCCCC2C)c1 (stereo not given)
  0.726	-0.6
> O=C(Nc1csc(-c2cccs2)n1)Nc1ccc(F)cc1F
  x	0.7
> CCN=C1SC(CC(=O)Nc2sc3c(c2C(=O)OCC)CCCC3)C(=O)N1CC (stereo not given)
  x	2.5

Look-ups from above:
CC(C)n1c(C(=O)OC(C(=O)NCc2ccco2)c2cccnc2)cc2sccc21 (stereo not given) in BasE inh is entered as -78.4
Cn1c(SCC(=O)NN)nc2ccccc21 in BasE inh is entered as 1.0

Continuation.
Results follow in this order: KSHV LANA nucl	BasE inh
> CC(=O)Oc1ccc(OC(C)=O)c2cc3c(OC(C)=O)ccc(OC(C)=O)c3cc12
  x	2.3
> CCCC(C)NC(=O)c1ccccc1 (stereo not given)
  x	-0.8
> C/C(=C\C(=O)c1ccccc1)Nc1ccc2c(c1)OCO2
  -0.371	0.7
> CCC(=O)Nc1ccc(N2CCCCS2(=O)=O)cc1
  -0.677	0.1
> O=c1[nH]nc(SCc2nnc(-c3cccc(Cl)c3)o2)n1C1CCCCC1
  -1.76	-2.6
> Cc1cc(C(=O)C(C)Sc2nnc(-c3ccc4c(c3)OCO4)o2)c(C)n1-c1ccc(OC(F)F)cc1 (stereo not given)
  x	2.7
> CC(C)NCC1CCc2cc(CO)c([N+](=O)[O-])cc2N1 (stereo not given)
  -0.189	-2.1
> CC[C@@H]1OC(=O)C[C@H](O)[C@@H](C)[C@@H](O[C@@H]2O[C@H](C)[C@@H](O[C@H]3C[C@@](C)(O)[C@@H](O)[C@H](C)O3)[C@H](N(C)C)[C@H]2O)[C@@H](C=O)C[C@@H](C)C(=O)/C=C/C(C)=C\[C@@H]1CO[C@H]1O[C@@H](C)[C@H](O)[C@H](OC)[C@@H]1OC
  -1.35	x
> CCOc1cc(C(=O)N(CC(F)(F)F)C(C)C2CC2)ccc1OC (stereo not given)
  x	1.3
> Cc1ccc(C)n1-c1ncc(Br)cn1
  -0.524	x
> CC(=O)Nc1ccc(C(=S)N2CCN(c3ccccc3O)CC2)cc1
  x	-0.3
> CCC(C)NC(=O)c1ccc2c(c1)CCN2S(=O)(=O)c1ccccc1 (stereo not given)
  -0.39	-3.9
> Cc1ccc(C(=O)c2coc3ccc(O)c(Cl)c23)cc1
  1.8	-2.2
> N#C/C(=C(\O)Cc1ccccc1)c1nc2ccccc2[nH]1
  -1.22	1.7
> C/C(=N\NC(=O)Cc1ccccc1)C(c1ccccc1)N1CCOCC1 (stereo not given)
  x	0.7
> COC(=O)C1=C(C)NC2=C(C(=O)CCC2)C1c1ccccc1 (stereo not given)
  x	6.4
> CCN(CC(=O)NC1CCS(=O)(=O)C1)Cn1nc2c(Cl)cc(Cl)cn2c1=S (stereo not given)
  x	0.8
> CC(C)(C)Nc1nc2c(s1)CCCC2
  x	4.7
> CC1=CC(=O)C(CCCC2=CC(=O)C=CC2=O)=CC1=O
  -0.347	2.0
> COc1ccccc1N1CCN(C(=O)CN(c2ccccc2OC)S(C)(=O)=O)CC1
  x	2.1
> C(=N\C(/N=C/c1cccs1)c1cccs1)/c1cccs1
  0.171	0.6
> Cc1cccc(-n2c(CC#N)n[nH]c2=S)c1
  x	-0.3
> O=C1C(=Cc2ccccc2)C(=O)c2ccccc21
  x	2.1
> CCCc1cc(-n2nnc3ccccc32)n2c(nc3ccccc32)c1C#N
  1.26	-7.9
> O=C(NNc1ccccc1)Nc1ccc2snnc2c1
  0.12	-0.5
> Cc1ccc(C(=O)OCC(=O)N2CC3(C)CC2CC(C)(C)C3)cc1NC(=O)c1ccco1 (stereo not given)
  x	-1.0
> COc1ccc2cc(CN(CC(N)=O)C(C)C)c(Cl)nc2c1
  x	0.3
> CCNCC(=O)NCc1ccc(Cl)cc1
  x	-0.3
> CCN1CCCC1CNS(=O)(=O)c1cc(C(=O)OC)n(C)c1 (stereo not given)
  0.308	2.9
> Cc1onc(-c2ccccc2)c1C(=O)OCC(=O)Nc1ccccc1
  x	0.4
> COC(=O)C1Cc2ccccc2CN1C(=O)CSc1nnc(-c2cc3c(s2)CCC(C)C3)o1 (stereo not given)
  x	0.3
> Cc1ccc(N(C(=O)c2ccccc2)C2CS(=O)(=O)CC2OC(=O)c2ccccc2)cc1 (stereo not given)
  x	1.8
> COC(CNC(=O)c1ccc(CS(=O)(=O)Cc2ccccc2F)o1)OC
  0.817	-0.6
> CC1CN(C(=O)C(C)N2CCc3ccccc32)CC(C)O1 (stereo not given)
  x	-4.0
> CC(C)(C)NC(=O)c1cccc(NC(=O)CCC(=O)O)c1
  x	1.3
> CCc1ccc(/C=C(\C#N)S(=O)(=O)c2ccccc2)s1
  1.5	-3.0
> O=C(O)c1ccccc1-c1ncc(-c2ccccc2)o1
  1.7	0.9
> Cc1cccc(C(=O)Oc2ccc(C#N)cc2)c1
  -0.82	1.2
> Cc1nn(C2CCS(=O)(=O)C2)c(Cl)c1CNCC1CN(CC(C)C)CCO1 (stereo not given)
  x	-0.7
> Cc1ccc(-c2nn(C)c(=O)c3ccccc23)cc1S(=O)(=O)N1CCOCC1
  x	1.3
> CC1CC(C)CN(C(=O)CSc2nc3cc4c(cc3c(=O)n2CCC2=CCCCC2)OCO4)C1 (stereo not given)
  -1.09	0.7
> COc1cc(CC(=O)Oc2ccc(-c3nnco3)cc2)cc(OC)c1OC
  x	0.5
> CCN1C(=O)c2cccc3c(NC(=O)c4ccc(S(=O)(=O)N5CCCCC5C)cc4)ccc1c23 (stereo not given)
  x	2.4
> COc1ccc(CCN2C(=O)C3C4C=CC(C4)C3C2=O)cc1OC (stereo not given)
  -1.23	x
> CCOc1ccc(Nc2cc(C(=O)NCc3ccco3)c3ccccc3n2)cc1
  1.79	-0.6
> Nc1ccccc1SC/C=C/c1ccccc1
  0.758	x
> O=C(CO)Nc1ccccc1Sc1ccccc1
  x	4.2
> COC(C)(C)CCCC(C)C/C=C/C(C)=C/C(=O)O (stereo not given)
  -0.0495	-0.2
> Cc1ccc(C)c(NC(=S)N2CCC(c3nc4ccccc4o3)CC2)c1
  -0.2	-2.1
> NC1=NC2C(N=C(Br)N2C2O[C@H]3COP(=O)(O)O[C@@H]3[C@@H]2O)C(=O)N1 (stereo not given in full)
  0.22	-1.1
> CCCCc1c(C)c(C#N)c2nc3ccccc3n2c1NCCN1CCOCC1
  x	1.0
> N#Cc1c(NC(=O)/C=C/C(=O)O)sc2c1CCC2
  x	0.0
> O=C(CN1C(=O)c2ccccc2S1(=O)=O)NC12CC3CC(CC(C3)C1)C2
  -0.272	0.6
> O=C(Nc1ccccc1)OC1CN(C(c2ccccc2)c2ccccc2)C1
  -0.273	x
> Cc1ccc(Cn2c(=O)c3ccccc3n3c(SCc4cc(=O)n5ccsc5n4)nnc23)cc1
  x	2.3
> CCN(CC)S(=O)(=O)c1cccc(C(=O)OCC(=O)c2ccc3c(c2)OCO3)c1
  x	2.2
> Fc1cccc2c1N[C@@H](c1ccccn1)[C@H]1CC=C[C@@H]21
  0.294	-0.8
> Cc1ccc(N(O)S(=O)(=O)c2ccc(C)cc2)cc1
  x	1.5
> O=S(=O)(c1ccccc1)c1nc(-c2ccccc2Cl)oc1Nc1ccc(N2CCOCC2)cc1
  x	2.3
> O=C(COc1ccc(/C=N/NC(=O)CSc2ncccn2)cc1)NCC1CCCO1 (stereo not given)
  -0.0065	0.6

Remaining list, next part:
Results follow in this order: KSHV LANA nucl	BasE inh
> Cc1ccc(/C=C/C2=CC(=C(C#N)C#N)CC(C)(C)C2)o1
  x	-7.6
> O=C(Oc1ccc(Cl)cc1)c1csc(C2COc3ccccc3O2)n1 (stereo not given)
  x	-1.4
> COc1ccc(-n2nnnc2SCc2cc(=O)oc3cc(O)ccc23)cc1
  x	2.0
> O=C(O)C(O)c1ccc(F)cc1 (stereo not given)
  x	0.8
> Cc1nn(-c2cccc(Cl)c2)nc1C(=O)NC1CCCCCC1
  x	-0.4
> N#C/C(=C(\OCc1nnc(-c2ccccc2)o1)C(F)(F)F)c1nnc2n1CCCCC2
  x	2.5
> O=C(Nc1ccc(Cl)cc1)OCc1cn(-c2ccccc2)nn1
  0.0185	x
> O=C(Oc1c(Br)cc(Br)c2cccnc12)N1CCOCC1
  x	1.8
> CC1CCC(N(C)C(=O)COC(=O)c2ccc(-n3cncn3)cc2)CC1 (stereo not given)
  x	-0.6
> Cc1ccc(S(=O)(=O)NC(CC(=O)NC2CCCC2)c2ccco2)cc1 (stereo not given)
  2.53	-3.4
> C=CCn1c(C)nnc1SCCN1C(=O)c2ccccc2S1(=O)=O
  x	1.5
> Cc1ccc(NC(=O)CC(NCC2CCCO2)C(=O)O)cc1 (stereo not given)
  x	-5.0
> COc1ccc2c(c1)C(C)=CC(C)(C)N2C(=O)Cn1cnc2c(cnn2-c2ccccc2)c1=O
  -0.06	3.6
> CCCC(=O)Nc1ccc(N2CCCCC2C)cc1 (stereo not given)
  -0.676	0.6
> CCOC(=O)N1CCC(NS(=O)(=O)c2ccc(C#N)cc2)CC1
  0.603	-1.6

A different layout for some results above:
> COc1ccc(-n2nnnc2SCc2cc(=O)oc3cc(O)ccc23)cc1
  KSHV LANA nucl: x
  BasE inh: 2.0

> CC1CCC(N(C)C(=O)COC(=O)c2ccc(-n3cncn3)cc2)CC1 (stereo not given)
  KSHV LANA nucl: x
  BasE inh: -0.6

> Cc1nn(-c2cccc(Cl)c2)nc1C(=O)NC1CCCCCC1
  KSHV LANA nucl: x
  BasE inh: -0.4

> C=CCn1c(C)nnc1SCCN1C(=O)c2ccccc2S1(=O)=O
  KSHV LANA nucl: x
  BasE inh: 1.5

(list continues)
Results follow in this order: KSHV LANA nucl	BasE inh
> O=C(Nc1cccc(-c2nn[nH]n2)c1)c1cccc(C(F)(F)F)c1
  -0.209	-0.1
> COc1ccc(Br)cc1C1SCCN1S(=O)(=O)c1ccc(Cl)c(Cl)c1 (stereo not given)
  x	0.1
> Cc1ccc2oc(=O)ccc2c1
  1.16	0.5
> Cn1ccsc1=NC(=O)c1ccc(OC(F)(F)F)cc1
  x	-4.2

This is a subset; the hit share may differ from the screen's.
